StopGo reporter: FMDV 2A StopGo reporter, luciferase signal; Potency, µM (series often up to 57.9 µM), inactives show at the top dose signal change, negative = less light; AID 1159524; human cells with a luciferase reporter of 2A StopGo recoding; control for the full effect not named in the record; 1.2% of 410,000 active; active = well fitted falling curve with a large enough effect; inconclusive = small, poorly fitted or top-dose-only effect; inactive = no such curve, though single readings can be large or run the other way; tested in HEK293T cells; note: % is set by controls: 0 for no effect and ±100 for the full control effect; nearly all actives have a fitted effect of over 45% in size; luciferase light after 4 h
LASV entry inh: Lassa virus entry inhibition; 1.2% of 300,000 active; Lassa virus pseudotype entry inhibition, cell reporter; control for the full effect not named in the record; Potency, µM (series often up to 37.9 µM), inactives show at the top dose activity change, negative = inhibition, most hits filed as inhibitors; active means well fitted inhibition curve with a large enough effect; inconclusive means small, poorly fitted or top-dose-only effect, or effect the other way; inactive means flat fitted curve, though single readings scatter; tested in HEK293 cells; note: % is set by controls: 0 for no effect and ±100 for the full control effect; nearly all actives have a fitted effect of over 50% in size; luciferase read-out
Cruzain Triton: blocks cruzain activity in presence of Triton detergent; P25779; purified cruzain, Z-FR-AMC fluorescence, 0.01% Triton; Potency, µM, without a hit: max response, negative = inhibition, usual class: inhibitors; 0.43% of 200,000 active;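 note: plate controls were neutral wells for no effect and buffer without enzyme for full effect; nearly all actives have a fitted effect of over 40% in size; top concentration of the series not given in the record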
Target sequence (P25779 123-467 limits assumed): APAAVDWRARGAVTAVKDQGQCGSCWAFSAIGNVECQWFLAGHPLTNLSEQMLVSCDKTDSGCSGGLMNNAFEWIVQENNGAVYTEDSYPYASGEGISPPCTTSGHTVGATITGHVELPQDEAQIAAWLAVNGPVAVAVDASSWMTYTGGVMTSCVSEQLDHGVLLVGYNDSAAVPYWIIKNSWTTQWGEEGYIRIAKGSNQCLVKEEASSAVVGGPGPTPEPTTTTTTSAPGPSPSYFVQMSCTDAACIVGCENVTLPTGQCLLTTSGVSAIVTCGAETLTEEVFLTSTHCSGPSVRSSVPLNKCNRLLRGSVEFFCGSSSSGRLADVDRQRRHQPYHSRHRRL
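Detergent-containing run (0.01% Triton X-100) in acetate buffer pH 5.5 with 5 mM DTT: enzyme at 1.5 nM final, 15 min compound preincubation at room temperature, then 2 uM Z-FR-AMC substrate. Activity taken as 60 s fluorescence increase at 360/450 nm.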
RE007 growth inh: less growth of the S. pombe RE007 Vpr strain; S. pombe RE007 Vpr strain, BacTiter-Glo ATP luminescence, 24 h; control for the full effect not named in the record; Potency, µM (titrated, usually from 92.2 µM), for inactives: at the top dose activity change, negative = less growth; 0.21% of 360,000 active; active = well fitted falling curve with a large enough effect; inconclusive = small, poorly fitted or top-dose-only effect; inactive = no such curve, though single readings can be large or run the other way;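 note: % is set by controls: 0 for no effect and ±100 for the full control effect; nearly all actives have a fitted effect of over 50% in size; the assay follows cell death caused by Vpr and the record does not say whether a fall means rescue or toxicity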
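Fission yeast strain RE007, carrying one chromosomally integrated HIV-1 vpr copy, was seeded at OD 0.01 in PMG+AL medium with 23 nL pinned compound. After 24 h at 30 °C and 99% humidity, viability was read by BacTiter-Glo luminescence.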
SARS PLP yeast: blocks SARS-CoV papain-like protease in a yeast assay; 0.19% of 330,000 active; S. cerevisiae expressing SARS-CoV PLpro, growth rescue; control for the full effect not named in the record; Potency, µM (titrated, usually from 32.9 µM), inactives show at the highest dose activity, positive = growth rescue; AID 485353; active means well fitted rising curve with a large enough effect; inconclusive means small, poorly fitted or top-dose-only effect; inactive means no such curve, though single readings can be large or run the other way; note: 0% is about no effect; nearly all actives have a fitted effect of over 55% in size; growth read by luminescence after 48 h
NS1 function inh: inhibitors of influenza NS1 protein function; S. cerevisiae slowed by influenza A NS1, growth recovery by OD600; Potency, µM (series often up to 46.1 µM), for the others: at the highest dose activity, positive = more growth; AID 2326; 0.4% of 270,000 active; active means well fitted rising curve with a large enough effect; inconclusive means small, poorly fitted or top-dose-only effect; inactive means no such curve, though single readings can be large or run the other way; note: nearly all actives have a fitted effect of over 50% in size
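Read-out: OD600 growth recovery of NS1-expressing budding yeast. Cells grown overnight at 30C in -URA glucose medium, washed, resuspended and diluted 1:100 in 2% galactose assay medium, pH 6.0. Same strain lacking NS1 served as positive control.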
Marburg entry inh: Marburg virus entry inhibition. Marburg virus pseudotyped entry inhibition, cell reporter; control for the full effect not named in the record; about a third of the inactives were read at about 46 µM. Potency, µM (series often up to 37.8 µM), for the others: at the top dose activity change, negative = inhibition, most hits filed as inhibitors. 1.8% of 300,000 active. AID 540276; active = well fitted inhibition curve with a large enough effect; inconclusive = small, poorly fitted or top-dose-only effect, or effect the other way; inactive = flat fitted curve, though single readings scatter; tested in HEK293 cells; about a fifth of its hits are not listed in these tables; note: % is set by controls: 0 for no effect and ±100 for the full control effect; luciferase read-out
Cruzain inh noDet: cruzain (T. cruzi) inhibition without detergent; AID 1476; P25779; 2.3% of 200,000 active; purified cruzain, Z-FR-AMC fluorescence, no detergent; Potency, µM, inactives show max response, negative = inhibition, most hits filed as inhibitors;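 note: plate controls were enzyme without inhibitor for no effect and buffer without enzyme for full effect; nearly all actives have a fitted effect of over 40% in size; top concentration of the series not given in the record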
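Detergent-free condition (0.00005% Triton X-100) in acetate buffer pH 5.5 with DTT. 1.5 nM enzyme and compound were pre-mixed 15 min, then 2 uM Z-FR-AMC substrate added; reaction progress from fluorescence change between first and third reads (60 s).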
An asterisk follows results filed as active; ? = inconclusive; . = no result given; & = joins results of further samples; [ ] = remark or other dose. Unless noted, calls come from the whole dose curve; as a rule, active = well fitted curve in the direction sought with a large enough effect; inconclusive = small, poorly fitted or top-dose-only effect, or another doubt; inactive = no such curve, though single readings can be large; an effect the other way counts as inactive or inconclusive. Potency is the fitted concentration of half-maximal effect.

SMILES	StopGo reporter	LASV entry inh	Cruzain Triton	RE007 growth inh	SARS PLP yeast	NS1 function inh	Marburg entry inh	Cruzain inh noDet
COc1ccc(OC)c(CCNC(=O)Cn2ccc3cc(S(=O)(=O)N4CCCCC4)ccc32)c1	?	?	-7.2%	.	.	.	.	15.1%
Nc1nnc(Cc2ccccc2)s1	-4.4%	0.2%	0.4%	-15.4%	-5.0%	1.6%	?	-0.2%
O=C(CCCOc1ccc(Br)cc1)NNC(=O)c1ccncc1	-2.0%	-1.8%[46.1 µM]	.	1.7%	1.8%	.	?	.
COc1cc(/C=C/CN2CCC(Oc3ccc(C(=O)N4CCCC4)cc3)CC2)ccc1O	-13.8%	.	.	-3.5%	-1.2%	31.7%	.	.
COc1cccc(C(=O)NC(=S)Nc2ccccc2N2CCCC2)c1	7.9%	2.2%[46.1 µM]	.	?	6.5%	1.2%	?	.
CC(C)CN(C(=O)Cn1c(C(F)(F)F)nc2ccccc21)C1CCS(=O)(=O)C1 (centres undefined)	-21.4%	-0.1%	.	17.3%	-5.4%	.	-1.8%	.
CC(=O)C(Cc1ccc(Cl)nc1)Cc1ccc(Cl)nc1	2.4%	-15.9%[46.1 µM]	.	-20.8%	0.1%	-2.3%	9.6%[46.1 µM]	.
CC(=O)Nc1ccc(-c2sc(Nc3cccc4ccccc34)n[n+]2-c2ccccc2)cc1	0.0%	.	.	-4.2%	2.6%	29.4%	.	.
COc1ccc(/C=C2\C(=N)N3N=C(CC(=O)N4CCOCC4)SC3=NC2=O)cc1	-17.2%	.	.	17.3%	-1.8%	7.6%	.	.
Cc1cccn2c(=O)c(/C=C(\C#N)C(N)=O)c(N3CCN(c4cccc(Cl)c4)CC3)nc12	?	.	.	-2.0%	0.3%	13.7%	.	.
O=C(Nc1cc2c(cc1C(=O)O)OCCCO2)c1ccc(F)cc1F	74.5%[activator]	?	.	2.4%	-0.4%	-0.2%	2.8%[46.1 µM]	.
COC(=O)C1C2C=CC3(CN(Cc4ccco4)C(=O)C13)O2 (centres undefined)	-21.5%	-0.1%	4.2%	10.0%	6.2%	6.1%	3.8%	-5.8%
O=S(=O)(c1cc(Cl)ccc1Cl)N1CC2CCCN2c2ccc(C(F)(F)F)cc21 (centres undefined)	-26.4%	-9.5%	3.4%	-8.0%	-12.8%	19.4%	-29.8%	?
COc1cccc(NC(=O)CSc2nc3c(sc4ccccc43)c(=O)n2CCN(C)C)c1	-9.2%	?	.	-4.9%	-5.9%	.	?	.
CCc1ccc(C(=O)c2cn(CC(=O)Nc3ccc4c(c3)OCCO4)c3ccc(C)cc3c2=O)cc1	-12.4%	-1.9%[46.1 µM]	-0.8%	.	.	.	17.1%[46.1 µM]	0.6%
Cc1onc(-c2ccccc2)c1C(=O)NCc1ccc2c(c1)OCO2	.	-14.3%	-3.0%	6.1%	13.7%	?	5.1%	-3.1%
C=CCN(c1ccc(C(=O)OC)cc1)S(=O)(=O)c1ccccc1	-9.9%	2.9%	.	21.1%	-0.2%	.	9.0%	.
COc1ccc(C(=O)NC(=S)Nc2ccccc2N2CCOCC2)cc1Br	0.0%	?	-6.7%	-12.0%	-3.3%	24.2%	?	?
CCOc1ccccc1NCc1nnc2n1CCCCC2	-8.0%	7.3%[46.1 µM]	2.1%	.	.	.	.	-12.1%
Cn1c[n+](C)cc1-c1ccc(/C(N)=N/O)cc1	0.7%	8.0%	-0.6%	5.1%	-27.2%	0.9%	29.4%	?
CCOc1ccsc1C(=O)O	1.9%	26.9%[46.1 µM]	.	80.1%	1.0%	8.5%	?	.
CCN(Cc1ccccc1)C(=O)c1cc2c(=O)oc3ccc(C)cc3c2s1	-19.1%&-25.0%	3.1%[46.1 µM]	-2.3%&-1.7%	6.8%	3.6%	-10.0%	5.8%[46.1 µM]	2.9%&-8.0%
CCCCc1cc(=O)oc2cc(C)cc(OCC(=O)NCC3CCC(C(=O)O)CC3)c12 (centres undefined)	-19.8%	.	.	-5.4%	-3.4%	1.8%	.	.
CCCS(=O)(=O)N1CCCC(C(=O)NCCCN(Cc2ccccc2)C(C)C)C1 (centres undefined)	-7.8%	-2.3%	9.1%	0.2%	3.4%	2.0%	-10.2%&-10.2%	7.0%
O=C(CC(=O)N1CCOCC1)N1CCOCC1	-4.5%	21.6%[46.1 µM]	.	-12.9%	.	.	21.3%[46.1 µM]	.

The listing continues.
SMILES	StopGo reporter	LASV entry inh	Cruzain Triton	RE007 growth inh	SARS PLP yeast	NS1 function inh	Marburg entry inh	Cruzain inh noDet
COc1ccccc1NC(=O)NCC(c1ccco1)N1CCCCC1 (centres undefined)	-1.9%	24.0%[46.1 µM]	.	0.3%	0.9%	.	6.0%[46.1 µM]	.
Cc1ccc2cc(CN(c3ccc(C)c(C)c3)S(C)(=O)=O)c(=O)[nH]c2c1	-11.8%	-2.0%[46.1 µM]	.	8.8%	2.4%	.	10µM*	.
CCOc1ccc(CN2CCNC(=O)C2CC(=O)N(C)C2CCCCC2)cc1 (centres undefined)	-8.1%	.	.	2.1%	-2.9%	0.0%	.	.
COc1ccc(CCn2cnc3c([nH]c4ccccc43)c2=O)cc1	-1.3%	.	.	20.7%	-0.6%	2.8%	.	.
CC(NC(=O)C1CCC(=O)N1Cc1ccccc1Cl)c1ccccc1 (centres undefined)	3.0%	.	.	4.0%	-1.0%	4.5%	.	.
COc1ccc(/C=C/C(=O)NCc2cn(C)nc2C)cc1COc1ccc(Cl)cc1Br	-8.5%	?	14.1µM*	12.2%	-2.8%	5.8%	?	-2.8%
CNC(=O)N(O)C1N(C)C(=O)N(CC(=O)OC)C1(C)C (centres undefined)	8.2%	5.0%	-0.2%	-6.1%	0.7%	-6.7%	14.3%	5.5%
CCOC(=O)C1CCCN(Cc2nc3ccc([N+](=O)[O-])cc3c(=O)n2-c2ccc(OC)cc2OC)C1 (centres undefined)	-20.9%	.	.	-5.8%	-5.5%	-1.1%	.	.
CCC(=O)Nc1ccc(NC(=O)c2cccc(OC)c2)nc1	41.6%[activator]	?	0.7%	-5.2%	-8.5%	-0.7%	2.8%	-9.7%
CSCCC(NC(=O)c1cccc(S(=O)(=O)N2CCOCC2)c1)C(=O)Nc1ccc(F)cc1 (centres undefined)	5.9%	-6.5%	-1.1%	12.7%	-23.3%	-1.0%	-2.4%	21.6%
CC(C)CC(=O)Nc1nnc(SCC(=O)NCc2ccc3c(c2)OCO3)s1	6.5%	12.8%	.	9.0%	0.8%	.	?	.
O=C(COC(=O)c1cc([N+](=O)[O-])ccc1N1CCOCC1)Nc1c(Cl)cccc1Cl	-5.7%	-14.5%	.	4.6%	-7.4%	.	?	.
CC(C)(C)CC(C)(C)NC(=O)Nc1cccc([N+](=O)[O-])c1	-3.2%	.	.	-3.9%	-4.3%	0.2%	.	.
Cc1cccc(NC(=O)c2cc(=O)c3ccccc3o2)c1	38.7%[activator]	?	.	-25.9%	-2.1%	-8.4%	?	.
O=C(COC(=O)CSc1ccc2ccccc2c1)Nc1ccccc1OC(F)F	-4.1%	?	-13.3%	0.3%	-17.8%	-19.7%	18.3%	-0.8%
COc1ccc(C(=O)NCCNC(C)=O)cc1S(=O)(=O)NCc1ccc(Cl)cc1	30.3%[activator]	-0.7%	3.9%	16.9%[3.69 µM]	3.8%	-4.7%	-8.3%	-8.2%
Cc1cccc2c(=O)cc(C)n(Cc3ccccc3)c12	?	21.4%	-2.9%	-14.7%	-13.5%	-0.2%	-19.3%	-8.1%
Cc1noc(C)c1S(=O)(=O)N1CCC(C(=O)N2CCN(c3cccc(C(F)(F)F)c3)CC2)CC1	?	1.1%[46.1 µM]	-0.9%	.	.	.	2.3%[46.1 µM]	-10.1%
COc1cccc(C(=O)Nc2ccc(NC(=O)C3CCCCC3)nc2)c1	7.5%	-2.3%[46.1 µM]	.	5.1%	2.4%	2.4%	?	.
COc1ccc(/C(C)=N/NC(=O)C2CC2)cc1	26.3%	-7.7%[46.1 µM]	.	-14.0%	0.1%	-5.4%	-9.9%[46.1 µM]	.
Cc1ccc(CNC(=O)c2cc3c(s2)CS(=O)(=O)C3)cc1	-26.1%	.	.	3.1%	-1.1%	19.6%	.	.
C=CCN1C(=O)C2C3C=CC(C2C1=O)C1C2C(=O)N(CC=C)C(=O)C2C31 (centres undefined)	-2.1%	13.1%	.	-1.7%	1.3%	0.7%	16.8%[46.1 µM]	.
CC(=O)Nc1ccc(S(=O)(=O)N2CCN(c3cc(C)nc4ccccc34)CC2)cc1	-20.3%	?	-0.2%	-11.6%	8.7%	-9.8%	-7.1%	-5.8%
CC(=O)Nc1ccc(NC(=O)C2CC(=O)N(Cc3ccco3)C2)cc1 (centres undefined)	-10.7%	-1.3%	.	-23.1%	-2.0%	.	1.9%	.
COc1cc(/C=C2\SC(=S)N(C(C(=O)O)c3ccccc3)C2=O)cc(OC)c1OC (centres undefined)	-3.1%	?	.	-2.8%	-0.8%	-8.6%	6.8%[46.1 µM]	.

The results go on:
SMILES	StopGo reporter	LASV entry inh	Cruzain Triton	RE007 growth inh	SARS PLP yeast	NS1 function inh	Marburg entry inh	Cruzain inh noDet
CCOC(=O)c1cc(NC(=O)N2CCCCC2)c(C)nc1C	-12.6%	2.3%	1.2%	4.6%	2.8%	-2.5%	-1.0%	-1.6%
COC(=O)Nc1ccc(S(=O)(=O)N2CCCC(C(=O)N3CCOCC3)C2)cc1 (centres undefined)	-18.9%	.	.	-12.0%	-1.4%	1.4%	.	.
O=C(NCC1CCCCC1)C1CCCN(C(=O)NC2CCCCC2)C1 (centres undefined)	-12.9%	-12.3%	-4.9%	2.3%	0.0%	-3.8%	?	-4.0%
CC(C)CC(=O)Nc1nnc(SCC(=O)NCc2ccco2)s1	15.8%	27.1%	-4.3%	0.3%	?	-5.8%	-13.8%	1.1%
O=C(COc1ccc([N+](=O)[O-])cc1)NNC(=O)c1cccnc1	2.6%	9.7%	.	-6.7%	1.2%	1.2%	4.3%[46.1 µM]	.
O=C1CCCN1c1ccc(C(=O)N(Cc2nnc(-c3ccc(Cl)cc3)o2)C2CC2)cc1	6.3%	4.8%	.	2.8%	1.9%	.	20.1%	.
CN(C)c1ccc(CNCC2CCCO2)cc1 (centres undefined)	-4.4%	0.5%	.	-4.7%	-2.6%	0.5%	20.4%	.

High-throughput results as filed in PubChem.
